# From PubChem BioAssay
# TRPML1 agonist – human mucolipin-1 channel agonism; Q9GZU1; TRPML1-expressing cells, Ca2+ dye fluorescence, FDSS; host cell line not named in the record; reference of the full effect not given here; activation, % (test concentration not listed); hit rate 0.12% among 410,000; AID 624414; in the data active = activation above about 50%; inconclusive = about 30% to 50%; inactive = below about 30%; further: 0% is about no effect; the text of the record puts the active cut at 80%
# Target sequence (Q9GZU1 whole entry, looked up): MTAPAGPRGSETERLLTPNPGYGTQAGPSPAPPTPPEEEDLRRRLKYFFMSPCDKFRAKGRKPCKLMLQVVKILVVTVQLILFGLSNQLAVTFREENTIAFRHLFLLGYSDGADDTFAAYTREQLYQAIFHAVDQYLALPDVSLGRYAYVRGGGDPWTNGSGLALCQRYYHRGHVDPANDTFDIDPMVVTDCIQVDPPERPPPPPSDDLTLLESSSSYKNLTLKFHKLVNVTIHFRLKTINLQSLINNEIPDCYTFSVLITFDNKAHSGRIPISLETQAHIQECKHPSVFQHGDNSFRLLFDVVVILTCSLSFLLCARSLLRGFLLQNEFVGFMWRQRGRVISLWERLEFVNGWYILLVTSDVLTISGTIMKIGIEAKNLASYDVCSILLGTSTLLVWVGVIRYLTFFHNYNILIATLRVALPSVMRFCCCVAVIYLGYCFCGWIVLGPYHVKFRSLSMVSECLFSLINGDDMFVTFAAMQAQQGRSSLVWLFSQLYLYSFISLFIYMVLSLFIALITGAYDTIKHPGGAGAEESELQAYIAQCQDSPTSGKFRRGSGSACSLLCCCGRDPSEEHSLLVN
#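 Tet-induced TRPML1-DL cells, 1,500 per well, cultured overnight, were loaded with a no-wash Ca2+ dye for 45–90 min. Calcium fluorescence was recorded on the FDSS for 110 s after compound addition, before the EC80 agonist (4 uM 54-4) was added.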
# PINK1 expr mod – modulators of PINK1 expression; PINK1 immunofluorescence, high-content cytometry, 24 h; Potency, µM (top dose mostly 76.6 µM), inactives show at the top dose activation (PINK1 increase), hits mostly activators; hit rate 0.2% among 410,000; AID 624263; active = well fitted activation curve with a large enough effect; inconclusive = small, poorly fitted or top-dose-only effect; inactive = flat fitted curve, though single readings scatter; cell line not stated here;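 further: potency means the concentration at half of the fitted maximal effect; % of control where 0% means no effect; nearly all actives have a fitted effect of over 65% in size; a mitochondrial uncoupler was the plate control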
#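 PINK1 protein, normally rapidly degraded, was detected by immunofluorescence after 24 hour compound treatment of a stable cell line. Titration data (5 concentrations) came from laser-scanning cytometry, with CCCP-treated wells as controls.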
# TRPML1 inh – inhibitors of human TRPML1 channel | Q9GZU1 | AID 624415 | activity change, negative = inhibition, % (concentration not given with the values) | TRPML1-inducible cells, Ca2+ dye fluorescence, FDSS; hits give low values; inhibition of EC80 agonist-evoked calcium signal | hit rate 0.02% among 390,000; in the data active means activity change below about -50%; inconclusive means about -30% to -50%; inactive means above about -30%;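 further: stimulus is agonist 54-4 at its EC80 concentration; on the % scale 0 is the no-effect control and ±100 the full control effect; compound concentration not given in the record; the text of the record puts the active cut at -80%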
#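 TRPML1-DL cells, Tet-induced overnight (~16 h, 37 °C) at 1,500 cells/well, were loaded with Ca8 no-wash dye plus quencher for 45-90 min at room temperature. Compounds were pinned during FDSS kinetic reading; agonist 54-4 at EC80 (4 uM final) then added.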
# Menin MLL FP FL – inhibitors of human menin-MLL interaction, wild-type MLL peptide; FP activity change, % at 61.4 µM; Fluorescence polarization, fluorescein-MLL peptide displacement from menin; AID 1766; 290,000 tested, under 10 active; inconclusive = falling polarisation curve, or a change in total fluorescence; inactive = total fluorescence flat and polarisation flat or rising; no compound was filed as active; the % refers to the polarisation; negative = inhibition;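 further: % of control where 0% means no effect; inhibitors lower the polarisation; unlabelled MLL peptide was the positive control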
# ClpP mod – qHTS Assay for Activators of ClpP; ATP-dependent Clp protease proteolytic subunit (Bacillus subtilis (strain 168)), P80244; purified B. subtilis ClpP, FRET peptide cleavage, 20 min; Potency, µM (doses to about 57.5 µM), for the others: at the highest dose activity change, negative = active; hit rate 1.9% among 340,000; AID 651965, 2013; active = well fitted falling curve with a large enough effect; inconclusive = small, poorly fitted or top-dose-only effect; inactive = no such curve, though single readings can be large or run the other way; further: potency means the concentration at half of the fitted maximal effect; the source files actives as falling curves though it sought activators and does not explain the sign; nearly all actives have a fitted effect of over 65% in size; many hits overshoot -100%
# Target sequence (P80244 whole entry, looked up): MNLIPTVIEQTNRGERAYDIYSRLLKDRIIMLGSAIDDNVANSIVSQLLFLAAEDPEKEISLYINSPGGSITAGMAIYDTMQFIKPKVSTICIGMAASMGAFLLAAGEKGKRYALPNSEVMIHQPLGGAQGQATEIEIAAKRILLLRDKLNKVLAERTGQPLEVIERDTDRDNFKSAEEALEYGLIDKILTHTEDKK
#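 Buffer: 100 mM Tris/HCl pH8, 100 mM KCl, 0.05% low protease BSA, 2.5% glycerol, 0.01% Tween-20. ClpP 10 microg/mL final; 20 min RT; delta FRET normalized to ADEP and DMSO controls.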
# Sfp inh – blocks B. subtilis Sfp PPTase activity; Biochemical Sfp PPTase activity, qHTS; Potency, µM, for the others: max response, negative = inhibition, most hits filed as inhibitors; hit rate 3.5% among 310,000; AID 1490; active means well fitted inhibition curve with a large enough effect; inconclusive means small, poorly fitted or top-dose-only effect, or another doubt; inactive means no such curve, though single readings can be large or run the other way;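 further: the enzyme is Sfp with the accession as filed and its product quenches rhodamine fluorescence; potency means the concentration at half of the fitted maximal effect; 0% = enzyme reaction without inhibitor and -100% = no enzyme wells; top concentration of the series not given in the record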
#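 With Hepes-Na pH 7.6 buffer containing 10 mM MgCl2, Sfp (15 nM) modified BHQ-2-YbbR (12.5 uM) using rhodamine-CoA (5 uM). Two reads 30 minutes apart at 525/598 nm yielded each well's rate.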
# TRPV1 PAM – enhances activation of the human vanilloid receptor TRPV1. Q8NER1. TRPV1-expressing cells, Fluo-8 calcium influx, capsaicin EC20 potentiation; host cell line not named in the record; control for the full effect not named in the record. potentiation, % at 8.33 µM. hit rate 0.02% among 320,000. AID 540277; active means potentiation above 80%; inconclusive means 30% to 80%; inactive means below 30%; further: 0% is about no effect
#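 Cells expressing TRPV1 were dye-loaded with Fluo-8 and read kinetically: 10 s baseline, 3 min after compound (agonist portion), then 2 min after EC20 capsaicin (allosteric enhancer portion). Calcium-bound dye fluorescence at 480/520 nm.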
# * marks the source's active call; other numbers are inactive results; ? = inconclusive; . = not tested or not shown; [ ] = remark or other dose.
[1] O=C(c1cccs1)N1CCN(S(=O)(=O)Cc2ccccc2)CC1
[2] COc1ccc(NC(=O)C(C)N(c2ccc(C)cc2)S(C)(=O)=O)cc1 (centres undefined)
[3] CCc1ccc(-c2[nH]c3c(c2-c2c(-n4cccc4)n(C)c(=O)n(C)c2=O)c(=O)n(C)c(=O)n3C)cc1
[4] CN(C(=N)N)c1ccc(/C=C2\C=Cc3ccccc32)cc1
[5] CCn1c(SCC(=O)N/N=C(\C)c2ccncc2)nnc1-c1ccc(C)cc1
[6] O=C(COC(=O)/C=C/c1ccccc1)NNC(=O)c1ccc([N+](=O)[O-])cc1
[7] Cc1ccc(C(=O)N(Cc2ccco2)c2c(N)n(Cc3ccccc3)c(=O)[nH]c2=O)cc1
[8] CC1CCN(c2c(NCc3ccc(C(=O)NCc4ccco4)cc3)c(=O)c2=O)CC1
[9] Clc1cccc(CN2CCCCCCC2)c1Cl
[10] Cc1ccc2nc(Nc3nc(CSc4nnc(C)s4)cc(=O)[nH]3)nc(C)c2c1
screen / no.	1	2	3	4	5	6	7	8	9	10
TRPML1 agonist	-0.1	0.0	-0.2	-0.3	-1.5	-1.0	-0.7	-0.5	-1.1	-0.4
PINK1 expr mod	8.8%	14%[38.3 µM]	-0.6%	-0.3%	-2.1%	2.3%	1.2%	2.3%	9.5%	15%
TRPML1 inh	22	-6	-5	.	-8	21	-5	-4	11	7
Menin MLL FP FL	3.7	-1.4	.	.	0.5	.	.	-0.8	2.7	-0.5
ClpP mod	1.7%	-1.2%	0.3%	0.8%	.	1.2%	1.9%	1.5%	0.6%	.
Sfp inh	8%	18%	.	.	13%	.	.	-5%	?	21%
TRPV1 PAM	-21	7	.	.	10	11	.	-9	-3	-9

[11] Cc1ccc(/C=C2/Sc3ccc(C(=O)NCc4ccccn4)cc3NC2=O)cc1
[12] COC(=O)NNC(=S)NCc1ccccc1
[13] CN(CC(=O)Nc1cccc(F)c1)C(=O)C1CC(=O)N(Cc2ccccc2)C1 (centres undefined)
[14] CCCN1C(=O)/C(=C\c2nc3ccccc3c(=O)[nH]2)c2ccccc21
[15] COc1cccc(NC(=O)CN(c2ccc([N+](=O)[O-])cc2)S(=O)(=O)c2ccccc2)c1
[16] CCOc1ccc(NC(=O)c2oc(=O)c3ccccc3c2-c2ccc(C)cc2)cc1
[17] Cc1ccc(NC(=O)c2ncn(CC(=O)N3CCN(c4ccccn4)CC3)n2)cc1C
[18] CCOc1cc(NC(=S)NC)c(OCC)cc1NC(=O)c1ccco1
[19] Cc1cc(C)c(OCC(=O)Nc2ccc(S(=O)(=O)N3CCOCC3)cc2)c(C)c1
[20] CC(C)(C)C(=O)Nc1ccc(Sc2ccc([N+](=O)[O-])cc2)cc1
screen / no.	11	12	13	14	15	16	17	18	19	20
TRPML1 agonist	-0.8	-0.2	-0.8	-0.7	-0.7	1.7	-0.6	2.0	2.1	0.0
PINK1 expr mod	28µM*	2.4%	-0.5%	4.5%	0.8%	1.2%	4.9%	1.9%	-1.5%	?
TRPML1 inh	1	-7	8	30	-4	36	14	-5	21	0
Menin MLL FP FL	.	6.3	.	-0.3	7.0	.	.	1.5	.	1.9
ClpP mod	0.7%	?	2.4%	.	-1.1%	-2.7%	-20%	0.4%	-2.0%	-17%
Sfp inh	-14%	-9%	15%	?	14%	.	.	5%	17%	15%
TRPV1 PAM	3	3	12	6	-1	.	.	3	11	1

[21] COc1ccc(Cl)cc1NC(=O)CSc1nc2ccccc2c2nc(-c3ccccc3)nn12
[22] O=C(O)c1ccccc1-c1ccccc1C(=O)NCc1cccc(C(F)(F)F)c1
[23] CN(C(=O)CCCN1C(=O)c2cccc3cccc(c23)C1=O)c1ccccc1
[24] C#CCOCCOCCOCCNc1nc(N2CCN(C(=O)CCCCCCCCCCNC(=O)[C@H](CCCCN)n3cc(CCO)nn3)CC2)nc(N2CCN(C(=O)CCCCCCCCCCNC(=O)[C@H](CCCCN)n3cc(CCCC(=O)O)nn3)CC2)n1
[25] CCOc1ccc(/C=C/C(=O)c2ccccc2)cc1OC
[26] COC(=O)c1cccc(NC(=O)CCc2c(C)noc2C)c1
[27] CC1=C(C(=O)OC2CCCCC2)C(c2ccco2)C2=C(CC(C)(C)CC2=O)N1 (centres undefined)
[28] Oc1ccccc1CNc1ccc2c(c1)OCCO2
[29] CCOC(=O)c1ccc(NC(=S)N2CCN(CCO)CC2)cc1
[30] Cc1cccn2c(=O)c3cc(C(=O)NCc4ccccc4Cl)sc3nc12
screen / no.	21	22	23	24	25	26	27	28	29	30
TRPML1 agonist	0.1	0.1	-0.5	-0.1	-0.3	0.2	0.5	-0.5	-1.1	2.3
PINK1 expr mod	8.6%	-1.0%	1.9%	0.9%	-0.5%	1.5%	?	0.3%	-0.7%	1.4%
TRPML1 inh	22	-18	17	-9	4	19	-22	0	14	4
Menin MLL FP FL	.	0.4	2.6	.	-1.0	.	1.1	4.5	0.8	.
ClpP mod	1.5%	.	.	1.4%	0.9%	-2.4%	32µM*	.	-1.5%	-23%
Sfp inh	.	8%	6%	.	-21%	.	-6%	-8%	15%	.
TRPV1 PAM	.	17	-9	?	-2	-9	-11	5	16	.

# Rewritten with each value named: part of the list above
22) O=C(O)c1ccccc1-c1ccccc1C(=O)NCc1cccc(C(F)(F)F)c1
  TRPML1 agonist: 0.1	PINK1 expr mod: -1.0%	TRPML1 inh: -18	Menin MLL FP FL: 0.4	ClpP mod: .	Sfp inh: 8%	TRPV1 PAM: 17
23) CN(C(=O)CCCN1C(=O)c2cccc3cccc(c23)C1=O)c1ccccc1
  TRPML1 agonist: -0.5	PINK1 expr mod: 1.9%	TRPML1 inh: 17	Menin MLL FP FL: 2.6	ClpP mod: .	Sfp inh: 6%	TRPV1 PAM: -9

# Limited to ClpP mod, TRPV1 PAM and PINK1 expr mod, for some of the entries so far:
item | molecule | ClpP mod | TRPV1 PAM | PINK1 expr mod
27 | CC1=C(C(=O)OC2CCCCC2)C(c2ccco2)C2=C(CC(C)(C)CC2=O)N1 (centres undefined) | 32µM* | -11 | ?
9 | Clc1cccc(CN2CCCCCCC2)c1Cl | 0.6% | -3 | 9.5%
28 | Oc1ccccc1CNc1ccc2c(c1)OCCO2 | . | 5 | 0.3%
16 | CCOc1ccc(NC(=O)c2oc(=O)c3ccccc3c2-c2ccc(C)cc2)cc1 | -2.7% | . | 1.2%
10 | Cc1ccc2nc(Nc3nc(CSc4nnc(C)s4)cc(=O)[nH]3)nc(C)c2c1 | . | -9 | 15%
4 | CN(C(=N)N)c1ccc(/C=C2\C=Cc3ccccc32)cc1 | 0.8% | . | -0.3%
20 | CC(C)(C)C(=O)Nc1ccc(Sc2ccc([N+](=O)[O-])cc2)cc1 | -17% | 1 | ?

# Other structures
[31] Cc1ccc(C)c(/C=N/NC(=S)NCCc2ccccc2)c1
[32] COc1cccc(Nc2nc(C(N)C(C)C)cs2)n1 (centres undefined)
[33] O=C(CS(=O)(=O)Nc1ccc(F)cc1Cl)Nc1ccc(F)cc1Cl
[34] Cc1ccc(OCc2nc(-c3ccccc3)no2)cc1
[35] CNC(=O)/C(C#N)=C/c1c(F)cccc1Cl
[36] Cc1cc(C)c(NC(=O)C2CCCN2C)c(C)c1 (centres undefined)
[37] COc1ccc(OC)c(S(=O)(=O)N2CCCC(C(=O)N3CCC(C(N)=O)CC3)C2)c1 (centres undefined)
[38] CN(c1ccccc1)S(=O)(=O)c1cccc2ccccc12
[39] CC1=C(c2ccc(C(C)C)cc2)S(=O)(=O)N=C1N1CCN(C(=O)c2ccco2)CC1
[40] CCC(C)(C)n1nnnc1C(c1ccc(C)cc1)N1CCCC1 (centres undefined)
screen / no.	31	32	33	34	35	36	37	38	39	40
TRPML1 agonist	1.7	0.2	0.0	.	-0.2	0.4	-0.1	27	-0.6	-0.4
PINK1 expr mod	4.1%	7.7%	5.1%	10%	16%	-0.8%	0.5%	0.8%	4.9%	?
TRPML1 inh	0	.	-6	.	-1	2	2	-9	10	2
Menin MLL FP FL	-2.6	.	0.5	-0.7	-0.8	-5.1	.	-2.0	.	1.7
ClpP mod	-4.8%	-5.9%	.	-0.5%	-7.0%	-0.2%	-3.8%	0.7%	1.6%	1.0%
Sfp inh	13%	.	15%	1%	17%	2%	.	-2%	5%	-9%
TRPV1 PAM	12	.	-22	-7	-3	-2	-1	11	14	-8

[41] CCN(CC)CCCNC(=O)c1sc2ncn(CC(=O)Nc3ccc(C)c(Cl)c3)c(=O)c2c1C
[42] COc1cc(C2C(C#N)=C(C)NC3=C2C(=O)CC(C)(C)C3)cc(OC)c1O (centres undefined)
[43] Cc1cc(C(=O)N2CCN(c3ccccc3)CC2)no1
[44] COc1ccc(C(=O)N(CCCO)C(C)C(=O)NC2CCCCC2)cc1OC (centres undefined)
[45] Cc1csc(NC(=O)c2cc3ccccc3o2)n1
[46] Cc1ccc(Cn2cccc(NC(=O)NC3CCCCC3)c2=O)cc1
[47] COc1cc(NC(=O)C(C)Oc2ccccc2)ccc1NC(=O)COc1ccccc1 (centres undefined)
[48] S=C(Nc1ccccc1)N1CCCCCCC1
[49] COc1ccc(-n2c3c(cc(-c4nc(-c5ccc(Cl)cc5)cs4)c2=O)C(=O)CC(C)(C)C3)cc1Cl
[50] COc1ccc(S(=O)(=O)N2CC(O)CC2C(=O)OCC(=O)Nc2ccc(Cl)cn2)cc1 (centres undefined)
[51] COc1cccc2c1OCC(C(=O)O)C2 (centres undefined)
[52] Cn1c(=O)c2c(nc(NC3CCCC3)n2C)n(C)c1=O
screen / no.	41	42	43	44	45	46	47	48	49	50	51	52
TRPML1 agonist	0.1	0.2	-0.5	0.6	2.5	5.1	2.5	0.2	-0.5	-0.9	-0.5	1.5
PINK1 expr mod	4.6%	0.9%	-0.7%[38.3 µM]	4.0%[38.3 µM]	4.2%	-1.5%	-0.1%	-0.3%	3.9%	0.5%	0.0%	0.3%
TRPML1 inh	0	-6	-5	9	8	16	16	2	-12	-6	-8	8
Menin MLL FP FL	7.4	-0.9	1.5	1.9	.	4.5	.	-2.8	.	-0.7	0.6	3.0
ClpP mod	-2.8%	-3.0%	-2.3%	-0.3%	-4.5%	?	?	.	-20%	-1.6%	.	-0.3%
Sfp inh	-6%	-17%	17%	17%	.	18%	16%	8%	.	6%	1%	12%
TRPV1 PAM	9	-1	-19	-5	-19	-10	11	5	.	-33	10	17
